# Mtb betalactam: beta-lactam sensitization of Mtb H37Rv | 330,000 compounds, 0.27% hits | inhibition, % at 25 µM | AID 434955 | M. tuberculosis H37Rv growth with meropenem, percent inhibition; hits of this screen are not shown here;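 active = about 74% or more and at least 40 points above the plate without the antibiotic, then above 30% in a dose series; inconclusive = first-round hits that could not be retested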;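 also: growth measured after seven days incubation then overnight dye step; 0% = bacteria only wells and 100% = bacteria with antibiotic; twin plates without the antibiotic show which effects depend on it; some results filed as inactive read as strong as hits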
# Numbers without * were called inactive; ? = inconclusive.
Compound,Mtb betalactam
CCOCc1c(C(=O)Nc2ccc(OC)nc2)oc2ccccc12,4
CCN(CC(=O)Nc1c(F)cccc1F)C(=O)Cc1c[nH]c2ccccc12,-8
COc1ccccc1C(=O)NCC(=O)N1CCN(c2ncccn2)CC1,0
COc1cc(C(=O)N2CCN(c3ccccc3F)CC2)ccc1OCC(=O)N1CCOCC1,2
Cc1nn(-c2ccccc2)c(C)c1C(=O)OC(C)C(=O)NC1CCCCC1C (stereo not given),0
O=C(C[C@@H]1C/C=C/CC[C@@H](Cc2ccc(F)cc2)C(=O)O[C@H](c2ccccc2)CNC1=O)NCCO,0
O=C(COc1ccccc1[N+](=O)[O-])Nc1cccc(S(=O)(=O)N2CCCC2)c1,-5
COCCCNC(=O)CN1C(=O)c2cccc3cccc1c23,2
C#CCOCCOCCOCCNc1nc(N2CCN(C(=O)[C@H](CCCN=C(N)N)n3cc(C(N)[C@H](C)CC)nn3)CC2)nc(N2CCN(C(=O)[C@H](CCCN=C(N)N)n3cc(C(N)[C@@H](C)CC)nn3)CC2)n1 (stereo not given in full),94
N[C@@H](Cc1ccc(O)cc1)C(=O)Nc1ccc2ccccc2c1,82
Cc1cccc(C)c1N1C(=O)CC(N2CCN(S(=O)(=O)c3ccccc3F)CC2)C1=O (stereo not given),-1
C[C@H](CO)N1C[C@H](C)[C@H](CN(C)Cc2ccccc2)Oc2c(NC(=O)Nc3ccc(F)cc3)cccc2C1=O,-5
Cc1noc(C)c1COc1ccc(C(=O)NCc2cccs2)cc1,4
COc1cc(=O)n(C)c2c(OCC(O)C(C)(C)O)cccc12 (stereo not given),3
CC(C)Cc1nnc(NC(=O)c2cccc(S(=O)(=O)N3CCOCC3)c2)s1,-6
CCc1noc(C)c1C(=O)OCC(=O)NC(C)c1ccccc1 (stereo not given),-3
COc1ccccc1N(C(=O)c1snc(C(N)=O)c1N)C(C(=O)NC1CCCC1)c1ccc2ncccc2c1 (stereo not given),-1
CN(c1ccccc1)S(=O)(=O)c1cccc(NC(=O)CCNC(=O)c2ccccc2)c1,0
COc1ccc(-c2sc3ccc(OC)cc3c2-c2ccc(OC)nc2)cc1,8
CCC(=O)c1ccc(OCC(=O)N2CCN(C(=O)c3ccccc3)CC2)cc1,-3

# Grouped by structure: the entries above with nitrogen in an aromatic ring (eleven)
Compound,Mtb betalactam
CCOCc1c(C(=O)Nc2ccc(OC)nc2)oc2ccccc12,4
CCN(CC(=O)Nc1c(F)cccc1F)C(=O)Cc1c[nH]c2ccccc12,-8
COc1ccccc1C(=O)NCC(=O)N1CCN(c2ncccn2)CC1,0
Cc1nn(-c2ccccc2)c(C)c1C(=O)OC(C)C(=O)NC1CCCCC1C (stereo not given),0
C#CCOCCOCCOCCNc1nc(N2CCN(C(=O)[C@H](CCCN=C(N)N)n3cc(C(N)[C@H](C)CC)nn3)CC2)nc(N2CCN(C(=O)[C@H](CCCN=C(N)N)n3cc(C(N)[C@@H](C)CC)nn3)CC2)n1 (stereo not given in full),94
Cc1noc(C)c1COc1ccc(C(=O)NCc2cccs2)cc1,4
COc1cc(=O)n(C)c2c(OCC(O)C(C)(C)O)cccc12 (stereo not given),3
CC(C)Cc1nnc(NC(=O)c2cccc(S(=O)(=O)N3CCOCC3)c2)s1,-6
CCc1noc(C)c1C(=O)OCC(=O)NC(C)c1ccccc1 (stereo not given),-3
COc1ccccc1N(C(=O)c1snc(C(N)=O)c1N)C(C(=O)NC1CCCC1)c1ccc2ncccc2c1 (stereo not given),-1
COc1ccc(-c2sc3ccc(OC)cc3c2-c2ccc(OC)nc2)cc1,8

# Later entries:
Compound,Mtb betalactam
O=C(COC(=O)/C=C/c1cccc(Cl)c1)NC1CCCC1,-2
C[C@H](CO)N1C[C@H](C)[C@@H](CN(C)Cc2ccc3c(c2)OCO3)Oc2ccc(NS(C)(=O)=O)cc2C1=O,-7
O=C(COC(=O)Cc1ccc(Br)cc1)NCc1cccs1,1
CC(C)[C@H](NC(=O)c1ccccc1F)C(=O)OCCN1C(=O)c2ccccc2C1=O,-5
COc1cc2sc3ccc(-c4ccc(CN5CCOCC5)cc4)cc3c(=O)c2cc1OC,86
Cc1cccc(C)c1NC(=O)CN(C)C(=O)C1CC(=O)N(c2cccc3ccccc23)C1 (stereo not given),10
Cn1c(=O)c2c(ncn2CC(=O)OCC(=O)Nc2ccc(F)cc2Cl)n(C)c1=O,-10
CCOC(=O)[C@@H]1[C@H]2COc3ccc(Br)cc3[C@@H]2N2C(=O)N(c3ccc(Br)cc3)C(=O)[C@@]12C,2
CCN(CC)C(=O)c1[nH]cnc1C(=O)NCCCCCNC(=O)OC(C)(C)C,6
CCC(C(=O)N1CCN(S(=O)(=O)c2ccc(F)cc2)CC1)c1ccccc1 (stereo not given),0
CN(CC(=O)Nc1ccc(Cl)c(Cl)c1)CC(=O)Nc1ccc2c(c1)OCO2,61
COC(=O)C1CCN(C(=O)COC(=O)c2ccc(N3CCCC3=O)cc2)CC1,-3
O=C(NCc1ccccc1)c1nncc(-c2ccccc2)n1,-2
COc1cc(C)ccc1S(=O)(=O)NC1CC(C)(C)NC(C)(C)C1,-9
CCCn1c(N)c(N(CCOC)C(=O)c2cc3ccccc3cc2OC)c(=O)[nH]c1=O,-2
CCOC(=O)Nc1ccc2c(COC(=O)C(NS(=O)(=O)c3ccc(Cl)cc3)C(C)O)cc(=O)oc2c1 (stereo not given),-12
CC(=O)c1ccc(OCCCC(=O)OCC(=O)Nc2c(C)nn(-c3ccccc3)c2C)cc1,-2
CCC(=N\NC(=O)COc1ccccc1OC)/C(CC)=N/NC(=O)COc1ccccc1OC,-3
CCc1cc2c(SCC(=O)Nc3ccc(NC(C)=O)cc3)ncnc2s1,-5
N#C/C(=C\c1ccc(O)c(O)c1)C(=O)Nc1ccccc1,2
CN(C(=O)COC(=O)Cn1cnc2c1c(=O)n(C)c(=O)n2C)C1(C#N)CCCCC1,1
CC(=O)c1c(C)[nH]c(C(=O)COC(=O)COc2ccccc2)c1C,4
O=C(OCC(=O)N1CCCC1)c1cc(=O)c2ccccc2o1,-3
COc1cc2c(C#CCCO)c(-c3ccsc3)oc(=O)c2cc1OC,63
COc1ccccc1CNC(=O)COC(=O)c1ccc(Cl)nc1,4
CC1CCN(C(=O)COC(=O)/C=C/c2ccc(Br)o2)CC1,16
CC1CCCC(C)N1C(=O)COC(=O)C12CC3CC(CC(Cl)(C3)C1)C2 (stereo not given),-1
Cc1cnc(C(=O)OCC(=O)c2ccc(C)s2)cn1,11
CC[C@@]1(C(=O)OC)N[C@H](CN(C)C(=O)Nc2ccc(F)cc2)[C@@H]2C(=O)N(C)C(=O)[C@@H]21,5
C/C(=C/c1ccccc1)C(=O)N1CCN(c2ccccc2F)CC1,-5
COc1ccc(C(=O)c2c(-c3ccc(OC)cc3)oc3ccccc23)cc1,10
O=C(CSc1nnc(-c2c[nH]c3ccccc23)o1)NCC1CCCO1 (stereo not given),8
Cc1ccc(C(C)(C)C)cc1S(=O)(=O)N1CCC(C(=O)N2CCN(c3ccc(O)cc3)CC2)CC1,-4
C[C@]12CCC3C(C(=O)C[C@H]4C[C@@H](O)CC[C@]34C)C1CCC2=O (stereo not given in full),-5
CCCC(C(=O)O)N1C(=O)/C(=C2\C(=O)N(C)c3ccccc32)SC1=S (stereo not given),1
COc1cccc(CCC(=O)Nc2cccc(S(=O)(=O)N3CCCC3)c2)c1OC,-2
O=Cc1ccc(Cl)c(Cl)c1,-1
NC(=O)c1cc([N+](=O)[O-])ccc1NCc1ccccn1,43
Cc1ccc(OCCC(=O)OCC(=O)c2c(N)n(CC(C)C)c(=O)n(C)c2=O)cc1,12
Cc1ccc(NC(=O)COC(=O)c2c(-c3ccccc3)noc2C)cc1,8
O=C(CN1C(=O)NC(Cc2c[nH]c3ccccc23)C1=O)Nc1ccc(Br)cc1F (stereo not given),1
C[C@@H](CSc1ccc(Br)cc1)CN1CC[C@H](NC(=O)OCc2ccccc2)CCC1=O,63
CC1(C)CC(NS(=O)(=O)c2ccc(C(C)(C)C)cc2)CC(C)(C)N1,-9
COc1ccc(S(=O)(=O)Nc2cc(S(=O)(=O)N3CCOCC3)ccc2OC)cc1,6
CC(C)n1ncc2c(C(=O)Nc3ccc(S(C)(=O)=O)cc3)cc(C3CC3)nc21,4
Cc1ccccc1CNC(=O)COc1ccccc1,5
CSCCNC(=O)c1ccc(OC2CCN(S(=O)(=O)N(C)C)CC2)cc1,-12
Cc1cc(-n2c(C)cc(C(=O)COc3ccc(Cl)cc3C(N)=O)c2C)no1,-4
Cc1ccc(C(=O)CSc2nnc(C3CC3)n2C2CC2)s1,-3
COc1ccc(C(=O)NC2CCC(O)CC2)cc1S(=O)(=O)NCc1ccc(Cl)cc1 (stereo not given),3

# Sorted by SMILES length (ascending): some entries from above.
Compound,Mtb betalactam
Cc1cnc(C(=O)OCC(=O)c2ccc(C)s2)cn1,11
CC(=O)c1c(C)[nH]c(C(=O)COC(=O)COc2ccccc2)c1C,4
Cc1ccc(OCCC(=O)OCC(=O)c2c(N)n(CC(C)C)c(=O)n(C)c2=O)cc1,12

# Continuation:
Compound,Mtb betalactam
COc1ccc(S(=O)(=O)N2CCCCC2)cc1NC(=O)C1CC1,-2
COc1cc(/C=C/c2nc3ccccc3c(=O)[nH]2)cc(Cl)c1O,7
COCCN(CC(=O)Nc1cccc(C)c1C)C(=O)c1cc(-c2cccs2)nn1-c1ccccc1,81
C[C@@H]1CN([C@@H](C)CO)C(=O)c2cc(NC(=O)Nc3ccc4c(c3)OCO4)ccc2O[C@H]1CN(C)S(=O)(=O)c1ccc(F)cc1,-2
O=C1C=C(c2cccc(OCc3ccccc3)c2)C[C@@H](c2ccc3c(c2)OCO3)C1,6
C=CC[C@@H](CC(=O)N[C@@H](CO)Cc1ccccc1)C(=O)NCCOC(=O)[C@@H](CC=C)CC(=O)OC(C)(C)C,-3
Cc1n[nH]c(=O)c2c(NC(=O)CSc3cc(Cl)ccc3Cl)oc(C)c12,-5
CCOc1ccc(C(=O)CCC(=O)Nc2cccc(S(=O)(=O)N3CCCCC3)c2)cc1,-6
C=CCSc1nnc(-c2cccc3ccccc23)o1,1
Cc1cc(SCC(=O)N2CCCC2=O)nc2ccccc12,-6

CN(CC(=O)Nc1cccc(F)c1)C(=O)CCCc1c[nH]c2ccccc12
  Mtb betalactam: -4

O=C(COC(=O)Cc1ccc(F)cc1)Nc1ccc(Cl)cn1
  Mtb betalactam: -8

CCN(Cc1nc2cc(Cl)ccc2c(=O)[nH]1)C(=O)c1cccc(NC(=O)c2cccs2)c1
  Mtb betalactam: -5

O=C(NNC(=O)c1ccccc1F)c1ccc(S(=O)(=O)N2CCCCC2)cc1
  Mtb betalactam: -13

COC(=O)C1=C(c2ccc(F)cc2OCc2ccccc2)C[C@@H]2CC[C@H]1N2C(=O)NCc1ccc(N(C)C)cc1
  Mtb betalactam: -10

COc1ccc(CNC(=O)C2CCCN(S(=O)(=O)c3ccc(-n4cnnn4)cc3)C2)cc1 (stereo not given)
  Mtb betalactam: -8

NC(=O)c1ccc(NC(=O)C2CC(=O)N(c3ccc4c(c3)OCCO4)C2)cc1 (stereo not given)
  Mtb betalactam: -5

O=C(NCCc1ccc(F)cc1)C1CCN(C(=O)Nc2ccccc2)CC1
  Mtb betalactam: -10

CCN1C(=O)C(=O)N(CC(=O)Nc2ccccc2OC(F)F)C1=O
  Mtb betalactam: -2

Cc1nc(SCC(=O)NCCN2C(=O)CSC2=O)nc(C)c1C
  Mtb betalactam: 3

O=C(CSc1ccccc1)Nc1cccc(S(=O)(=O)N2CCCCC2)c1
  Mtb betalactam: -3

COc1ccc(C(=O)CCC(=O)Nc2ccc(N3CCN(C)CC3)cc2)cc1OC
  Mtb betalactam: -1

O=C(NCCCN1CCOCC1)C1CCN(S(=O)(=O)c2cccc(C(F)(F)F)c2)CC1
  Mtb betalactam: -13

COc1cccc(NC(=O)CN(C)C(=O)c2c(-c3c(F)cccc3Cl)noc2C)c1
  Mtb betalactam: 3

COc1ccc(C(=O)N2CCCN(C)CC2)cc1S(=O)(=O)N(C)Cc1ccccc1
  Mtb betalactam: 1

CCn1c(Cc2ccccc2)nnc1SCC(=O)c1c(N)n(C2CC2)c(=O)[nH]c1=O
  Mtb betalactam: 3

CCCc1nc2nc(C)c(NS(=O)(=O)c3ccc(C4CCCCC4)cc3)c(=O)n2[nH]1
  Mtb betalactam: -2

CC1(C)C[C@H]2C3=CCC4[C@@]5(C)CC[C@H](O)C(C)(C)C5CC[C@@]4(C)[C@]3(C)[C@@H](O)[C@@H](O)[C@@]2(CO)[C@@H](O)[C@@H]1O (stereo not given in full)
  Mtb betalactam: -2

Cc1ccc(S(=O)(=O)N2CCC[C@H]2C(=O)Nc2ccc(F)cc2C)cc1
  Mtb betalactam: -6

NC(=O)c1ccc(NC(=O)c2cc(S(=O)(=O)N3CCCCC3)ccc2N2CCOCC2)cc1
  Mtb betalactam: -6

C[C@H]1COC(=O)[C@H](NC(=O)OCC2c3ccccc3-c3ccccc32)C/C=C\C[C@H](CC(=O)N(CCO)Cc2ccccc2)C(=O)N1
  Mtb betalactam: 6

Cc1ccc(S(=O)(=O)N2CCN(C(=O)COC(=O)c3cccnc3Cl)CC2)c(C)c1
  Mtb betalactam: -1

NC(=O)c1cc([N+](=O)[O-])ccc1NCc1ccc(C(=O)O)cc1
  Mtb betalactam: 0

COc1ccc(OC)c(NC(=O)COC(=O)c2ccc(OC)c(S(=O)(=O)N3CCCC3)c2)c1
  Mtb betalactam: -6

Cc1ccc(C2=NCCn3nc4cc(C(F)(F)F)ccc4c32)cc1
  Mtb betalactam: -7

CCC1CCCCN1C(=O)COC(=O)COc1ccc(Br)cc1 (stereo not given)
  Mtb betalactam: 80

Cc1cccc(C2CN(C)CCc3c2cc(O)c(O)c3Cl)c1 (stereo not given)
  Mtb betalactam: 9

O=C(Cc1ccc(Cl)cc1)NNC(=O)C1CC=CCC1C(=O)O (stereo not given)
  Mtb betalactam: ?

Cc1ccc(C(=O)NC2CC3CCC(C2)N3C)cc1 (stereo not given)
  Mtb betalactam: -8

COc1cc(/C=C/C(=O)OCC(=O)NCCCc2ccccc2)ccc1O
  Mtb betalactam: 0

CCOc1ccc(NC(=S)N2CCC(NC(=O)c3ccccc3)CC2)cc1
  Mtb betalactam: 1

O=C(Nc1ccc(Cl)cc1F)C1CC1c1ccccc1 (stereo not given)
  Mtb betalactam: -1

# An excerpt. The share of hits here may be higher or lower than overall.
